PINK1 modulator = modulators of PINK1 expression; PINK1 immunofluorescence, high-content cytometry, 24 h; Potency, µM (highest dose often 76.6 µM), inactives show at the top dose activation (PINK1 increase), usual class: activators; 410,000 compounds, 0.2% hits; AID 624263; active = well fitted activation curve with a large enough effect; inconclusive = small, poorly fitted or top-dose-only effect; inactive = flat fitted curve, though single readings scatter; cell line not stated here;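 also: potency is read from the fitted curve at half-maximal effect; % of control where 0% means no effect; nearly all actives have a fitted effect of over 65% in size; a mitochondrial uncoupler was the plate control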
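Stable cell line, 250 cells/well, 12 h attachment; compounds pinned at 5 concentrations, 24 h; CCCP control. Fixed with nuclear dye, primary antibodies 12 h at 10 degrees C, secondary plus cell stain; laser-scanning cytometer read.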
TRPML1 agonist = agonists of human TRPML1 channel; AID 624414; Q9GZU1; activation, % (test concentration not listed); 410,000 compounds, 0.12% hits; TRPML1-expressing cells, Ca2+ dye fluorescence, FDSS; host cell line not named in the record; reference of the full effect not given here; in the data active = activation above about 50%; inconclusive = about 30% to 50%; inactive = below about 30%; also: 0% is about no effect; the text of the record puts the active cut at 80%
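Kinetic FDSS Ca2+ read in Tet-induced TRPML1-DL cells (ABD Ca8 dye plus quencher, 45-90 min RT loading): baseline, then compound, then 110 s agonist window; EC80 agonist 54-4 at 4uM final added afterwards for a 110 s antagonist window.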
TRPML1 inh = blocks the human TRPML1 channel; Q9GZU1; TRPML1-inducible cells, Ca2+ dye fluorescence, FDSS; stronger effect = lower value; inhibition of EC80 agonist-evoked calcium signal; activity change, negative = inhibition, % (test concentration not listed); 390,000 compounds, 0.02% hits; in the data active means activity change below about -50%; inconclusive means about -30% to -50%; inactive means above about -30%;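 also: stimulus is agonist 54-4 at its EC80 concentration; % is scaled to controls: 0 for no effect and ±100 for the full control effect; compound concentration not given in the record; the text of the record puts the active cut at -80%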
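TRPML1-DL cells, Tet-induced overnight (~16 h, 37 °C) at 1,500 cells/well, were loaded with Ca8 no-wash dye plus quencher for 45-90 min at room temperature. Compounds were pinned during FDSS kinetic reading; agonist 54-4 at EC80 (4 uM final) then added.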
Sfp inh = Sfp phosphopantetheinyl transferase inhibition. Biochemical Sfp PPTase activity, qHTS. Potency, µM, for inactives: max response, negative = inhibition, most hits filed as inhibitors. 310,000 compounds, 3.5% hits; active = well fitted inhibition curve with a large enough effect; inconclusive = small, poorly fitted or top-dose-only effect, or another doubt; inactive = no such curve, though single readings can be large or run the other way;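 also: the enzyme is Sfp with the accession as filed and its product quenches rhodamine fluorescence; potency is read from the fitted curve at half-maximal effect; 0% = enzyme reaction without inhibitor and -100% = no enzyme wells; top concentration of the series not given in the record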
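After 15 min at room temperature with compound, 15 nM Sfp received 5 uM rhodamine-CoA plus 12.5 uM BHQ-2-ybbR (50 mM Hepes pH 7.6, 10 mM MgCl2). Rate came from the fluorescence difference over 30 min, ex 525/em 598 nm.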
ClpP mod = qHTS Assay for Activators of ClpP; ATP-dependent Clp protease proteolytic subunit (Bacillus subtilis (strain 168)), P80244; purified B. subtilis ClpP, FRET peptide cleavage, 20 min; Potency, µM (top dose mostly 57.5 µM), for the others: top-dose activity change, negative = active; 340,000 compounds, 1.9% hits; AID 651965, 2013; active = well fitted falling curve with a large enough effect; inconclusive = small, poorly fitted or top-dose-only effect; inactive = no such curve, though single readings can be large or run the other way; also: potency is read from the fitted curve at half-maximal effect; the source files actives as falling curves though it sought activators and does not explain the sign; nearly all actives have a fitted effect of over 65% in size; many hits overshoot -100%
Target sequence (P80244 whole entry, looked up): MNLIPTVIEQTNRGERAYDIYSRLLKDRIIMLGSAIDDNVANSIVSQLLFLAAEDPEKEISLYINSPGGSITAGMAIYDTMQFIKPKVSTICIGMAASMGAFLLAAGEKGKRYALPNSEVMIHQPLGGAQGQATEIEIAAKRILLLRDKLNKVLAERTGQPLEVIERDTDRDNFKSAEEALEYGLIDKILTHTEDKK
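FRET quenching reversal measured ClpP activation: 10 microg/mL B. subtilis ClpP at pH 8 with the FRET-FV decapeptide, read at 430 nm after 320 nm excitation. The 20-min minus 0-min signal was scaled between DMSO/no-enzyme wells and ADEP (5.8 microM final).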
TRPV1 potentiator = potentiators of human vanilloid receptor 1 (TRPV1); Q8NER1; AID 540277; 320,000 compounds, 0.02% hits; potentiation, % at 8.33 µM; TRPV1-expressing cells, Fluo-8 calcium influx, capsaicin EC20 potentiation; host cell line not named in the record; control for the full effect not named in the record; active means potentiation above 80%; inconclusive means 30% to 80%; inactive means below 30%; also: 0% is about no effect
Target sequence (Q8NER1 whole entry, looked up): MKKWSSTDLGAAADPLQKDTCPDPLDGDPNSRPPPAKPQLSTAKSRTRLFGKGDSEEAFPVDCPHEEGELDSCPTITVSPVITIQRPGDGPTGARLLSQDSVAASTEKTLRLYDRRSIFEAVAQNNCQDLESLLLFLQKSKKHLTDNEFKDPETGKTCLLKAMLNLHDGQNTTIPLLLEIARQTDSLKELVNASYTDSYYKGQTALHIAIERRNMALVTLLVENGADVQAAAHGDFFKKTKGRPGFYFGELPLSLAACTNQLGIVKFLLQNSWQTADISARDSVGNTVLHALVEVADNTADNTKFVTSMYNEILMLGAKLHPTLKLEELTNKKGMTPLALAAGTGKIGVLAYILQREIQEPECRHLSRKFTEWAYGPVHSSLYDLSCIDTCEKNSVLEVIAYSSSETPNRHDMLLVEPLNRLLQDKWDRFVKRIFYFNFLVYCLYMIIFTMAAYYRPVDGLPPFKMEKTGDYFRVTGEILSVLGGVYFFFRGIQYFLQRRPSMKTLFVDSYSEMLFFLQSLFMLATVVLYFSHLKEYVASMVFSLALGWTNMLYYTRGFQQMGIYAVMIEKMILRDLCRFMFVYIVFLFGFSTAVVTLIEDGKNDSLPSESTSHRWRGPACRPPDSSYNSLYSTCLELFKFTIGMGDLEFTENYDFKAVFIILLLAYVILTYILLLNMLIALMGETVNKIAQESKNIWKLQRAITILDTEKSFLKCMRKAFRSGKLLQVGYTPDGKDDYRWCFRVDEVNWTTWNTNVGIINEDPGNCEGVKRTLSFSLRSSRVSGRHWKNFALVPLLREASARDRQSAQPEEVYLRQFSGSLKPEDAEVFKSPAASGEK
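TRPV1-expressing cells were cultured overnight at 35.5C and loaded with Fluo-8 calcium dye for 40 to 90 min at room temperature. After a 10 s baseline, compound was added and calcium influx was read kinetically for 3 min (ex 480/em 520 nm).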
Menin MLL FP FL = displaces fluorescein MLL peptide from human menin. AID 1766. 290,000 tested, under 10 active. Fluorescence polarization, fluorescein-MLL peptide displacement from menin. FP activity change, % at 61.4 µM; inconclusive = falling polarisation curve, or a change in total fluorescence; inactive = total fluorescence flat and polarisation flat or rising; no compound was filed as active; the % refers to the polarisation; negative = inhibition;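 also: % of control where 0% means no effect; inhibitors lower the polarisation; unlabelled MLL peptide was the positive control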
* marks the source's active call; other numbers are inactive results; ? = inconclusive; . = no result given; [ ] = dose if it differs, or a comment.

Every second line gives: PINK1 modulator	TRPML1 agonist	TRPML1 inh	Sfp inh	ClpP mod	TRPV1 potentiator	Menin MLL FP FL
CC(=O)Nc1ccc(C(=O)N/N=C/C2CC3C=CC2C3)cc1 (centres undefined)
 : 1.0%	0.4	30.1	13.9%	1.5%	5.2	-0.3
O=C(Nc1sc2c(c1C(=O)O)CCCC2)c1ccc(F)cc1
 : 0.3%	0.6	4.4	12.5%	.	-13.3	-3.0
O=C(N/N=C/c1ccccn1)c1ccc(NC(=O)c2ccccc2Cl)cc1
 : 3.1%	-0.5	-10.6	-12.1%	.	-13.5	-1.8
Cc1cc(=O)oc(C)c1C(=O)N1CCc2c([nH]c3ccccc23)C1C(C)C (centres undefined)
 : 0.2%	-0.6	-4.4	21.2%	-5.7%	.	2.8
COC(=O)[C@]12CCCCC=C1N(Cc1ccc(Cl)cc1Cl)C(=O)[C@H](CC(=O)NCc1cccc(C(F)(F)F)c1)C2
 : 1.8%	-0.4	.	.	-0.6%	.	.
CC(C)OC(=O)CSc1nnc2c(n1)[nH]c1ccc(F)cc12
 : 0.7%	1.3	-12.7	-4.0%	1.2%	-13.4	-3.3
Nc1ncnc2c1ncn2[C@@H]1O[C@H](C(=O)NCc2ccc(OC(F)(F)F)cc2)[C@@H](O)[C@H]1O
 : 2.0%	0.3	-6.8	.	-1.4%	.	.
O=C(O)c1cc(N/N=C/c2ccc(N3CCOCC3)cc2)ccc1Cl
 : -1.0%	0.1	2.9	-12.2%	-4.1%	-9.2	6.0
O=C(NCc1ccc(F)cc1)c1cnc(N2CCOCC2)c2ccccc12
 : 1.0%	-0.3	-21.9	.	-8.8%	.	.
O=C(O)c1ccc(N=NN2CCCC2)cc1
 : 0.5%	0.1	0.6	6.6%	.	5.3	2.4
CC(NC(=O)c1ccc(Cl)s1)C1CCCO1 (centres undefined)
 : -2.1%[38.3 µM]	0.6	-1.4	-13.2%	-8.7%	-10.8	3.5
CCOC(=O)C1CCCN(C(=O)c2ccc3nc(-c4ccc(OC)c(OC)c4)c(-c4ccc(OC)c(OC)c4)nc3c2)C1 (centres undefined)
 : 15.0%	-0.5	36.5	1.4%	-1.4%	19.6	.
CCN(CC(=O)Nc1ccc(OC)cc1)C(=O)CN1C(=O)NC(C)(c2ccc3ccccc3c2)C1=O (centres undefined)
 : 3.5%	-0.5	-3.0	12.3%	0.4%	5.0	.
O=C(Nc1ncccn1)C1c2ccccc2Oc2ccccc21
 : -1.9%	0.1	1.4	-3.5%	-1.8%	9.1	5.6
O=C(COC(=O)CNC(=O)c1ccccc1F)NCC(F)(F)F
 : -1.8%	1.7	2.7	21.7%	-0.3%	13.1	-3.5
Cc1c(C(=O)NCCN2CCCC(O)C2)oc2c(F)cccc12 (centres undefined)
 : -0.5%	0.4	-7.4	20.8%	-4.1%	7.8	.
Cc1occc1C(=O)Nc1cccc(S(=O)(=O)N2CCOCC2)c1
 : 4.5%	-1.4	-1.1	.	1.5%	.	.
CCN(CC)S(=O)(=O)c1ccc(NC(=O)c2ccc(CN3CCOCC3)cc2)cc1
 : 1.5%[38.3 µM]	1.0	12.7	-0.4%	-0.5%	-10.5	-2.9
C#CCN(C[C@@H]1[C@@H](OC(=O)NC2CC2)[C@@H](OC(=O)NC2CC2)Cn2c(=O)n(CCCCCC)c(=O)n21)S(=O)(=O)c1ccc(C)cc1
 : 2.5%	-0.1	-1.8	.	0.1%	.	.
COc1cc(CN(C)c2ccc(S(=O)(=O)N3CCCC3)cn2)ccc1OC(F)F
 : -1.1%	2.7	16.7	.	0.9%	-5.6	.
Cc1ccc(C)n1-c1cc(S(=O)(=O)N2CCOCC2)ccc1N1CCCC1
 : .	-0.2	-5.7	?	-20.9%	?	-2.0
CCOC(=O)NNC(=O)c1ccc(Cl)cc1
 : -0.3%	-0.3	-4.8	1.6%	0.0%	2.9	-2.3
CCCSc1nc(N)nc2c1ncn2C1OC(CO)C(O)C1O (centres undefined)
 : -2.3%	1.2	-9.4	.	.	.	.
COc1ccc(C(C)C)cc1S(=O)(=O)Nc1ccccn1
 : 5.6%[38.3 µM]	0.2	-4.2	9.1%	0.1%	2.6	5.7
O=C(NCc1ccc(F)cc1)C1CCC(CNS(=O)(=O)c2cccs2)CC1 (centres undefined)
 : 10.3%	-1.1	-1.8	7.2%	-2.7%	7.0	-14.2
Clc1ccc2c(c1)C1CC2CCN1Cc1ccccc1 (centres undefined)
 : 7.9%	4.8	12.6	.	-3.2%	.	.
CC1CCC2(CC1)NC(=O)N(CC(=O)NC1(C#N)CCCCC1)C2=O (centres undefined)
 : 6.1%	0.2	4.5	.	.	8.6	.
CCN(C(=O)Cc1ccccc1OC)c1nnc(-c2ccncc2)s1
 : -0.7%[38.3 µM]	4.0	15.8	-9.6%	-4.4%	-1.4	1.1
COC(=O)[C@]12CCCCC=C1N(Cc1ccccc1)C(=O)[C@H](CC(=O)N1CCOCC1)C2
 : 1.5%	-0.3	.	.	0.1%	.	.
CC(C)Oc1ccc(/C=N/NC(=O)c2nnn(-c3nonc3N)c2CN(C)c2ccccc2)cc1
 : 0.0%	0.6	-3.3	-12.7%	-4.5%	3.7	-3.5
CCOC1(C)OCC(=O)[C@]2(CCC3C4CCC5=CC(=O)C=CC5(C)C4C(=O)CC32C)O1 (some centres undefined)
 : -1.5%	0.1	22.0	3.8%	-5.0%	10.8	-2.8
COCC(C)NC(=O)c1ccc2nc(-c3ccccc3)c(-c3ccccc3)nc2c1 (centres undefined)
 : 0.2%	1.7	10.0	-9.1%	23.1%	-24.0	1.2
N#Cc1ccc(C(=O)Nc2cccc3ccccc23)c(F)c1
 : 3.2%	-0.5	11.7	13.5%	.	9.0	-7.9
CCC(C)N1C(=O)N(c2cccc(Cl)c2)C(C)(O)CC1(C)C (centres undefined)
 : 4.5%	2.8	36.1	7.2%	0.1%	-15.0	4.9
COc1ccc(NC2CCCN(C(=O)C3=NNC(=O)CC3)C2)cc1 (centres undefined)
 : 1.7%	-0.3	1.0	.	-0.5%	.	.
O=C(NC(NC(=O)c1c(F)cccc1F)c1ccc([N+](=O)[O-])cc1)c1c(F)cccc1F
 : 3.6%	-0.5	6.1	-18.9%	-1.2%	-2.8	3.1
Cc1ccc(Nc2c(-c3ccco3)nc3ccccn23)cc1
 : 9.7%	1.9	7.9	?	25.1µM*	15.8	-0.2
Cc1cc(SCC(=O)Nc2cccc(S(=O)(=O)NC3=NCCCCC3)c2)nc2ccccc12
 : -0.5%	1.4	7.9	-23.2%	-6.0%	18.1	2.2
COCC1CCN(C(=O)c2cc(COc3ccc(OC)cc3Cl)on2)C1 (centres undefined)
 : 7.6%	-0.4	9.4	.	-1.4%	.	.
O=C(NC(=S)N1CCCC1)c1ccc(Cl)cc1
 : 3.4%	-0.2	6.4	8.9%	0.9%	?	.
CCN(CCO)C(=O)c1ccc2nc(Cc3cccc(Cl)c3)oc2c1
 : 0.8%	-0.4	12.4	2.2%	.	0.8	-0.5
COC(=O)c1cccnc1NC(=S)NNC(=O)c1ccncc1
 : .	-0.2	16.8	10µM*	1.7%	-13.7	2.0
CC(C)CC(C(=O)OCC(=O)N1CCN(c2ccccc2)CC1)N1C(=O)c2ccccc2C1=O (centres undefined)
 : 0.2%	-0.1	4.0	.	0.3%	.	.
C[C@@H]1CN([C@H](C)CO)S(=O)(=O)c2ccc(C#Cc3ccccc3)cc2O[C@@H]1CN(C)C(=O)CN(C)C
 : -1.8%	-0.4	22.7	.	-3.2%	.	.
S=C(Nc1ccccc1Cl)N(CCCN1CCOCC1)Cc1ccco1
 : 0.9%	-0.8	-9.3	3.0%	-1.7%	5.1	-1.4
CC(=O)N/N=C(\C)c1ccc2c(c1)OCCO2
 : -0.4%	-0.2	-0.4	7.9%	-0.2%	-6.6	-0.3
CCOC(=O)C1=C(C)N(C)C(=O)NC1c1cccc([N+](=O)[O-])c1 (centres undefined)
 : 0.3%	-0.5	-22.1	.	1.1%	.	.
Cc1cc(C)n(Cc2ccc(C(=O)NCCC3=CCCCC3)o2)n1
 : 0.5%	1.4	-4.2	11.4%	-1.9%	-24.0	0.2
COc1ccccc1-c1nc(-c2ccc(Br)cc2)no1
 : 3.0%[38.3 µM]	0.0	-2.5	-9.2%	?	5.3	3.8
Cc1nn(C(=O)Cn2ccc([N+](=O)[O-])n2)c(C)c1Br
 : -0.2%[38.3 µM]	0.1	-13.8	0.5%	-1.0%	-40.5	-2.9
O=S(=O)(/C=C/c1ccccc1)N1CCN(c2ccccc2)CC1
 : 4.9%	0.3	-16.1	10.9%	2.1%	-0.2	0.8
Cc1noc(C)c1-c1ccc2ncnc(N(C)C)c2c1
 : 3.3%	.	.	-0.8%	.	.	7.1
O=C(Cn1c(=O)oc2cc(S(=O)(=O)N3CCCC3)ccc21)Nc1ccc(C(F)(F)F)cc1
 : 2.8%	-0.7	14.8	14.1%	-20.7%	-12.6	-0.9
CS(=O)(=O)c1cccc(C(=O)Nc2ccc(-c3nc4ccccc4[nH]3)cc2)c1
 : 10.1%	-0.1	-4.1	8.0%	3.4%	2.2	4.0
CC1c2cc3c(cc2CCN1C(=O)c1cccc(Cl)c1)OCCCO3 (centres undefined)
 : 0.4%	3.7	10.7	-4.3%	0.4%	-7.8	.
Cc1ccccc1Nc1cc(C(=O)NCc2cccs2)c2ccccc2n1
 : 3.5%	2.7	3.1	.	-13.5%	.	.
COc1ccccc1/C=N/NC(=O)NC12CC3CC(CC(C3)C1)C2
 : 4.3%	1.7	37.9	2.1%	.	0.5	0.7
COc1ccc(S(=O)(=O)NCC(c2ccco2)N2CCN(c3ccc(F)cc3)CC2)cc1 (centres undefined)
 : 0.5%	3.2	-18.4	.	-4.6%	.	.
O=C(Oc1ccc(-c2cnc3ccccc3n2)cc1)c1cc([N+](=O)[O-])ccc1Cl
 : -0.6%	-0.9	-1.6	-13.7%	-1.7%	0.0	1.1
CC(=O)Nc1ccc(C(=O)N2CCOCC2c2cc(C(=O)NCc3ccccc3)no2)cc1 (centres undefined)
 : 1.4%	-0.5	.	.	0.9%	.	.
COc1ccc(-c2nc(CN3CCN(c4ccccc4OC)CC3)c(C)o2)cc1
 : -1.0%	-0.1	2.7	-0.1%	-4.4%	8.4	-2.3
O=c1[nH]cc(-c2ccccc2)c(=O)[nH]1
 : 0.8%	-0.5	-4.2	18.2%	0.3%	-5.3	1.1
